Tg IFNy HTS – T. gondii growth inhibition with IFN-gamma, primary screen, cell-based. Toxoplasma gondii growth in IFN-gamma-treated host cells; stronger effect = lower value; reference of the scale not given here. activity change, negative = inhibition, %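 (about 20 µM by stock and volumes)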. 69,000 tested, 3.8% active;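 active = below -70%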;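 also: host cells are HeLa cells infected with Toxoplasma gondii; parasite growth read as luciferase light; one replicate is shown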
* marks the source's active call; other numbers are inactive results; i = inactive; & = joins results of further samples. Not all compounds are listed, so the mix of outcomes need not match the whole.

| SMILES | Tg IFNy HTS |
| --- | --- |
| COc1cccc(CCN2CCC(CNS(=O)(=O)c3ccc4[nH]c(=O)ccc4c3)CC2)c1 | -8 |
| COC(=O)c1sccc1OCc1ncc(C(F)(F)F)cc1Cl | 15 |
| Cc1nccc(-c2cc(O)cc(CCC3CCCCN3)c2)n1 (stereo unspecified) | -3 |
| CCOCC(=O)N1CCc2cc(-c3csc(C4CC4)n3)ccc21 | 63 |
| CC(C)C(=O)NCCc1csc(-c2ccc(F)cc2)n1 | 104 |
| Cc1oc(-c2ccccc2Cl)cc1C(=O)NCCCc1ccncc1 | -60 |
| C=C(C)COc1ccccc1C(=O)N1CCC2(CC1)CN(C)CCN2C | 6 |
| COc1c(C)cc(C(=O)C2CCCN(Cc3ccc(Oc4ncccn4)cc3)C2)cc1C (stereo unspecified) | -41 |
| COc1ccc(CC2SC(N)=NC2=O)cc1 (stereo unspecified) | -17 |
| Cc1ccc(C)n1-c1cccc(NC(=O)CCc2nnc(C(C)C)o2)c1 | -1 |
| Cc1ccc(CC(=O)N2CCC3(CC2)Nc2ccc(C)c(C)c2-n2cccc23)cc1 | 27 |
| Cc1cc(S(=O)(=O)N2CCC(c3nc(C(=O)N(C)C)c(C)o3)CC2)ccc1F | -31 |
| CCOC(=O)COc1ccc(Br)cc1 | 13 |
| C[C@H]1CN([C@@H](C)CO)C(=O)Cc2cc(NS(=O)(=O)c3cn(C)cn3)ccc2O[C@H]1CN(C)Cc1ccc2c(c1)OCO2 | 14 |
| CCOC(=O)Cn1cc(CN2CCCC2c2cc(C(C)C)on2)c2ccccc21 (stereo unspecified) | -42 |
| C[C@@H]1CN([C@H](C)CO)S(=O)(=O)c2ccc(-c3ccncc3)cc2O[C@@H]1CN(C)S(C)(=O)=O | 168 |
| CCN1CCC2(CC1)CC(NCc1cccs1)c1ccccc1O2 (stereo unspecified) | -40 |
| Cc1cc(C)n(CC2(CNC(=O)[C@@H]3C[C@@H]4C=C[C@H]3C4)CC2)n1 | -6 |
| CC(C)c1ccc(S(=O)(=O)N2CCC3(CC2)Nc2cc(F)ccc2-n2cccc23)cc1 | -26 |
| COc1ccc(CCN(C)CC(=O)Nc2cc(C)nc3ccccc23)cc1OC | 36 |
| Cc1ccc2c(c1C)-n1cccc1C1(CCN(S(=O)(=O)c3cnn(C(F)F)c3C)CC1)N2 | 13 |
| CNC(=O)[C@@H](c1ccccc1)N1CCc2cc(OC)c(OC)cc2[C@@H]1CCc1ccc(C(F)(F)F)cc1 | 18 |
| CN1CCN(Cc2cnn(C)c2)CC2(CCCC(=O)N2)C1 (stereo unspecified) | 97 |
| O=C(C1CC1)N1C[C@H]2CNC[C@@]2(C(=O)NCCCc2ccccc2)C1 | 1 |
| CC(=O)Nc1ccc(Cl)c(C(=O)N2CCCCC2C(=O)O)c1 (stereo unspecified) | 0 |
| C/C=C/c1ccc([C@@H]2[C@@H](CO)N3CCCCN(CCC(F)(F)F)C[C@@H]23)cc1 | -23 |
| Cc1nc(C)c(C(=O)N2CC3CCCC(O)(c4cccc(C(F)(F)F)c4)C3C2)s1 (stereo unspecified) | -9 |
| O=C(O)C1CC2(CCNCC2)CN1Cc1ccccc1Cn1cccn1 (stereo unspecified) | 2 |
| CCS(=O)(=O)N1CC[C@@H](OCCOC)[C@@H]1Cc1ccccc1 | 3 |
| Cc1nccc(NCc2cncc3c2CCN(CCN(C)C)C3)n1 | -2 |
| O=C(c1nc(-c2cccc(F)c2)n2c1CCCCC2)N1CCN(Cc2ccccc2)CC1 | -68 |
| CC(NCCC1=CCCCC1)C(=O)NC1CCCC1 (stereo unspecified) | -2 |
| Cc1ccc(S(=O)(=O)NCCNC(=O)N2CCOCC2)cc1 | -8 |
| CCOc1cc(CCC(=O)N2CCCc3c(Cl)cc(Cl)c(O)c32)on1 | -87* |
| COc1ccc(CN(C)C[C@H]2Oc3ccc(NC(=O)Nc4ccc5c(c4)OCO5)cc3CC(=O)N([C@@H](C)CO)C[C@H]2C)cc1 | -53 |
| C=CCn1nc(C(=O)N2CCCCC2)c2c1CCC(NCC1(N3CCCCC3)CCCC1)C2 (stereo unspecified) | 22 |
| COCCn1c2c(ccc1=O)CC(NC(=O)c1ccnnc1)CC2 (stereo unspecified) | 32 |
| C#CCN(Cc1ccco1)C(=O)C1CC(=O)Nc2ccc(F)cc21 (stereo unspecified) | -2 |
| Cc1c(CN(C)C(=O)C2CC3(CCNCC3)CN2)[nH]c2ccccc12 (stereo unspecified) | 2 |
| CCOc1ccccc1CNC(=O)C1=C(C)C(=O)OC12CCN(CC)CC2 | 28 |
| CC(C)(C)C(=O)OCOP(=O)(COCCn1cnc2c(N)ncnc21)OCOC(=O)C(C)(C)C | -80* |
| Cc1cccc(OCC(=O)N2CCC(C(=O)NCCc3csc(-c4ccccc4)n3)CC2)c1 | 7 |
| CC1CCN(c2ncnc3c2cnn3CC(=O)Nc2ccccc2F)CC1 | 237 |
| COc1cccc(OC)c1-c1ccc(CN2CCCCC2)cc1 | -17 |
| CCOc1ccc(CCNc2nc(-c3ccc(OC)cc3)nc3ccccc23)cc1 | -42 |

Nothing new here: an excerpt of the list.
| SMILES | Tg IFNy HTS |
| --- | --- |
| COc1cccc(CCN2CCC(CNS(=O)(=O)c3ccc4[nH]c(=O)ccc4c3)CC2)c1 | -8 |
| COC(=O)c1sccc1OCc1ncc(C(F)(F)F)cc1Cl | 15 |
| Cc1nccc(-c2cc(O)cc(CCC3CCCCN3)c2)n1 (stereo unspecified) | -3 |
| CCOCC(=O)N1CCc2cc(-c3csc(C4CC4)n3)ccc21 | 63 |

Additional entries follow.
| SMILES | Tg IFNy HTS |
| --- | --- |
| Cc1nccn1-c1ccc(CNC(=O)CCC(=O)NC2CCCC2)cc1 | 1 |
| CO[C@@H]1CN(C)C(=O)c2cc(NC(=O)c3ccc4c(c3)OCO4)ccc2OC[C@H](C)N(CCC(F)(F)F)C[C@@H]1C | 139 |
| COc1cccc(OC)c1C(=O)NC(=O)Oc1c(F)cccc1F | -37 |
| Cc1nn(C)c(C)c1S(=O)(=O)N1CCC2(CC1)Nc1ccc(Cl)cc1-n1cccc12 | 14 |
| Cc1ccc(-c2nc(Cn3c(=O)c4c(C)cc(C)nc4n(C)c3=O)c(C)o2)cc1 | -6 |
| O=C(NCCc1csc(-c2ccc(Cl)cc2)n1)C1CCCCC1 | -34 |
| Cc1noc(C)c1NC(=O)Nc1ccc2c(c1)C(=O)N([C@H](C)CO)C[C@@H](C)[C@@H](CN(C)Cc1ccc3c(c1)OCO3)OCCCC[C@@H](C)O2 | 299 |
| O=C(C[C@@H]1CC[C@@H]2[C@H](COC[C@@H](O)CN2Cc2cc(F)ccc2F)O1)NCc1ccc(Oc2ccccc2)cc1 | -28 |
| O=C(N[C@H]1C=C[C@@H](CC(=O)N2CCC(Cc3ccccc3)CC2)O[C@H]1CO)c1cnccn1 | 32 |
| CN1C[C@@H]2C3(CCN(C(=O)c4ccco4)CC3)CC[C@]2(C(=O)N(C)C)C1 | 2 |
| CC(C)NC(=O)c1cc2c(nc1N(C)C)CCN(C(=O)NC1CCCC1)CC2 | 2 |
| COC(=O)C1(C)CCN(c2nc(-c3cccnc3)nc3c2cnn3C)CC1 | -41 |
| c1coc(CN2Cc3nccn3CC(Cn3cncn3)C2)c1 (stereo unspecified) | -19 |
| O=C(Cn1ncc2c(N3CCN(c4ccccn4)CC3)ncnc21)NCc1ccc(F)cc1 | -100* |
| COc1ccc(-c2nc(CCNC(=O)c3c(F)cccc3Cl)cs2)cc1 | i |
| COc1cc2c(cc1OC)[C@@H]1C(=O)c3ccc4c(c3O[C@@H]1CO2)C=CC(C)(C)O4 | -49 |
| COc1ccc(C(=O)c2sc3nc(C)cc(C(F)(F)F)c3c2N)cc1OC | -8 |
| C[C@H](CO)N1C[C@H](C)[C@@H](CN(C)Cc2ccc(Oc3ccccc3)cc2)Oc2c(NC(=O)CCC(F)(F)F)cccc2C1=O | -65 |
| CCOCC1CN(C(=O)c2ccoc2)Cc2ncn(CC3CC3)c21 (stereo unspecified) | -1 |
| Cc1cc(Cc2ccccc2)cc(C2CCCN(CC(=O)Nc3ccnn3C(C)C)C2)n1 (stereo unspecified) | -27 |
| Cc1ccccc1NC(=S)NC(=O)Cc1ccc(Cl)cc1 | -10 |
| CCc1noc(CN2CCOc3c(O)cc(-c4nc(C)cnc4C)cc3C2)n1 | -14 |
| CCCn1c(=O)c2[nH]c(C3CCCC3)nc2n(CCC)c1=O | 16&7&5 |
| N#Cc1c(-c2cccnc2)c2c([nH]c1=O)-c1ccccc1OC2 | -8 |
| CCS(=O)(=O)N1Cc2ccnn2CC(COc2cccnc2)C1 (stereo unspecified) | 11 |
| COc1ccc2c(c1)NC1(CCN(C(=O)Nc3cc(Cl)c(OC)cc3OC)CC1)c1cccn1-2 | 49 |
| Cc1ccccc1-c1noc(CCC(=O)N2CCC3(CN(C)C(=O)O3)C2)n1 (stereo unspecified) | 6 |
| CCCNC(=O)C1=C(C)C(=O)OC12CCN(S(=O)(=O)c1cccs1)CC2 | 27 |
| C[C@H](CO)N1C[C@H](C)[C@@H](CN(C)C(=O)c2ccc3ccn(C)c3c2)OCc2cnnn2CCCC1=O | -25 |
| O=C(CSc1nc(-c2ccc(F)cc2)cs1)Nc1nncs1 | 16 |

Next structures follow:
Compound | Tg IFNy HTS
Cc1ccoc1C(=O)N1CC(=O)N(C2CCCCC2)CC(OCc2ccccc2)C1 (stereo unspecified) | -19
Cc1cc(C)nc(SCc2ccc(C(=O)O)o2)n1 | 25
CCN1c2cc(C)ccc2-n2cccc2C12CCN(S(=O)(=O)c1cccc(Cl)c1)CC2 | -84*
O=C(c1cccc(F)c1)N1CCC2(CCCN2c2ncccn2)CC1 | -3
Cc1ncccc1NC(=O)[C@H]1C[C@H]2CCN(S(C)(=O)=O)C[C@@H]2O1 | 83
CCc1ccc(CN2CCC(N(C)C)CC2C(=O)O)o1 (stereo unspecified) | -2
Cc1ccc(-c2cc(-c3ccccc3)cc(C)c2C(=O)c2ccccc2)cc1 | 119
O=C(C1CCCCC1)N1CC2(C1)[C@@H](c1ccccc1)[C@@H](CO)N2CCC(F)(F)F | -23

Random excerpt: six records from the list.
Compound | Tg IFNy HTS
Cc1cc(C)nc(SCc2ccc(C(=O)O)o2)n1 | 25
Cc1ncccc1NC(=O)[C@H]1C[C@H]2CCN(S(C)(=O)=O)C[C@@H]2O1 | 83
O=C(C1CCCCC1)N1CC2(C1)[C@@H](c1ccccc1)[C@@H](CO)N2CCC(F)(F)F | -23
CCc1ccc(CN2CCC(N(C)C)CC2C(=O)O)o1 (stereo unspecified) | -2
Cc1ccoc1C(=O)N1CC(=O)N(C2CCCCC2)CC(OCc2ccccc2)C1 (stereo unspecified) | -19
O=C(c1cccc(F)c1)N1CCC2(CCCN2c2ncccn2)CC1 | -3

Further results
Compound | Tg IFNy HTS
CCCNC(=O)N1CCC2(CC1)CN(Cc1ccccn1)[C@H](CO)c1c2c2ccc(OC)cc2n1C | -49
C=CCN1CC[C@@]2(CN(Cc3cnn(C)c3)C[C@H]2c2ccccc2)C1=O | -1
CCC(=O)Nc1ccc(-c2c(F)cccc2OC)c(C)n1 | 5
Cc1ccc(N2CCC3(CC2)CN(CC#N)Cc2ccccc23)nn1 | -51
CC(C)(C)c1ccc(C(CC(=O)c2ccccc2)C(C#N)C#N)cc1 (stereo unspecified) | -65
Cc1cc(O)cc2c1O[C@](C)(CCC[C@H](C)CCC[C@H](C)CCCC(C)C)CC2 | 13
CCCC(=O)Nc1cc(C(=O)N(C)CC2COc3ccccc3O2)ccc1C (stereo unspecified) | -6
COc1ccccc1-n1c(=O)n(Cc2nc(-c3cccc(Cl)c3)oc2C)c(=O)c2cccnc21 | 6
CCOC(=O)C1CCCN(C(=O)c2cc3cccnc3n(Cc3ccc(F)cc3)c2=O)C1 (stereo unspecified) | -6
CNC(=O)C1CC2CN(C(=O)Nc3cccc(Cl)c3)CC1O2 (stereo unspecified) | -8
COCc1cc(=O)n2[nH]c(SC)nc2n1 | -40
COc1ccc2c3c([nH]c2c1)[C@@H](CO)N(C(C)=O)CC31CN(Cc2ccccc2Cl)C1 | -50
FC(F)(F)CCc1ccnc(-c2ccn[nH]2)n1 | -1
CO[C@@H](CN(C)Cc1cc(F)ccc1F)[C@H](C)CN([C@@H](C)CO)S(=O)(=O)c1ccc(C)cc1 | -51
COc1ccc2oc(-c3ccccc3OC)cc(=O)c2c1 | -55
CCn1c(SC)nnc1C1CCCN(S(=O)(=O)c2ccc3c(c2)OCCO3)C1 (stereo unspecified) | 30
COc1c(NC(=O)N2CC(C)OC(C)C2)csc1Cl (stereo unspecified) | 51
CN(Cc1ccsc1)C(=O)c1ccccc1-c1ncc[nH]1 | -4
CN1CC2(CCN(C(=O)c3cnc4c(c3)nnn4C)C2)OC1=O (stereo unspecified) | 12
CC(C)[C@H]1C(=O)N[C@H](c2cccc(Cl)c2)CC=CC[C@H](C)Oc2ccccc2C(=O)N1C (mixture of isomers) | -29
O=C(C[C@H]1CC[C@H]2[C@@H](COC[C@@H](O)CN2Cc2ccc(F)cc2)O1)NCCc1ccccc1 | -39
CCCNC(=O)N1[C@@H](C#N)[C@H](c2ccccc2-c2ccccc2F)[C@@H]1CO | 22
c1ccc(-n2nccc2-c2nccn2C2CCSC2)cc1 (stereo unspecified) | -2
CSc1nc(C)c(Oc2ccccc2)c(=O)n1C | 36
Cc1cnc(CNC(=O)[C@H]2CC3C(CCN3S(C)(=O)=O)O2)cn1 (stereo partly specified) | -4
COc1cccc(-c2cc(C(=O)Nc3cnn(Cc4cccc(F)c4)c3)on2)c1 | -96*
COCC(=O)N1CCCn2c(nc(CN3CCCC3)cc2=O)C1 | -4
O=C(CN(Cc1ccccc1)C(=O)c1ccno1)NCc1cccs1 | -3
Cc1nn(Cc2nc(-c3ccccc3)no2)c(C)c1Br | -1
CSc1ccc(C2c3[nH]c4ccccc4c3CCN2C(=O)c2ccccc2Cl)cc1 (stereo unspecified) | 89
CCCCC(=O)Nc1ccc(C)cc1NC(=O)c1cc(C)nn1CC | -23
CN1CCCn2nc(C(=O)N(C)C3Cc4ccccc4C3)cc2C1 | -5
CC(=O)N1CCC2(CC1)C(=O)N(CC1CC1)C2c1ccccc1 (stereo unspecified) | -6
COc1cccc(CC2CC(c3ccccc3)=NO2)c1OCc1c(Cl)cccc1Cl (stereo unspecified) | -96*
CN1CC2(CCCCN2C(=O)c2cccs2)CC1=O (stereo unspecified) | 27
